HSV augment – increases HSV replication in cells. maximum fold increase. 220,000 compounds, 0.005% hits. AID 1956. HSV replication augmentation in cells, fold increase;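 active = peak rise of 1.5-fold or more in the series; inconclusive = self-fluorescent or not available for retest; tested in PC3 cells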;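 also: first round at 10 µM; read as green reporter fluorescence; hits show the peak of a series up to 25 µM; 1 = signal of infected wells without compound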
PKD1 kinase inh – blocks activity of human protein kinase D1 | Q15139 | AID 797 | 200,000 compounds, 0.056% hits | inhibition, %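 (about 10 µM by stock and volumes)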 | PKD1 kinase fluorescence polarization assay;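 active = inhibition of 50% or more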;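 also: controls were vehicle for no effect and a reference inhibitor for full effect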
Target sequence (Q15139 whole entry, looked up): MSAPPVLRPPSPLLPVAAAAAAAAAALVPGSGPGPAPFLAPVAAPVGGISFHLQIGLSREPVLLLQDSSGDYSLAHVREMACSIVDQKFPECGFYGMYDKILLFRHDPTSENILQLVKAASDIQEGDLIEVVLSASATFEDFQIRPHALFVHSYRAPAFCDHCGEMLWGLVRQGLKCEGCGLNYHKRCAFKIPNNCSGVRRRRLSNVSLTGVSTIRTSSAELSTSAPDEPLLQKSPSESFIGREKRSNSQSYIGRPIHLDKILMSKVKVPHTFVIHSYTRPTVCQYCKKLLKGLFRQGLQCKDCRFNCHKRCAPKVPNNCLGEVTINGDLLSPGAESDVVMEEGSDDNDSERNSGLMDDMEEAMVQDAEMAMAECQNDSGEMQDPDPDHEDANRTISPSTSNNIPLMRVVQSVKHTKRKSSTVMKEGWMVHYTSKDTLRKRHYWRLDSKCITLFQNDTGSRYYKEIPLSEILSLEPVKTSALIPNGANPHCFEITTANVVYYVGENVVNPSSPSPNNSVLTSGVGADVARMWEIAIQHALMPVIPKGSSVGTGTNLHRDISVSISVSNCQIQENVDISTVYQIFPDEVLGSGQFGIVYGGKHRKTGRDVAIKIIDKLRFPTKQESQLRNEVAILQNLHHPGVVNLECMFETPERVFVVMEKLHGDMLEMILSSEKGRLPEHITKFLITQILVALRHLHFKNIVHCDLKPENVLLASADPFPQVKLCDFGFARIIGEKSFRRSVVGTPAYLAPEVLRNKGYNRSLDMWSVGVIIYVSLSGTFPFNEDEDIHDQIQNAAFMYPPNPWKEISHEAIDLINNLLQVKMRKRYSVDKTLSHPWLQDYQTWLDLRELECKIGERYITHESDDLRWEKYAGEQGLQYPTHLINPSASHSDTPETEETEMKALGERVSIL
RGS16-Gao HTS – RGS16-Galphao interaction regulator (human). O15492+P09471. 220,000 compounds, 0.38% hits. bead-based flow cytometry RGS16-Galphao binding, fluorescence; actives lie on both sides. binding response (% of control), % at 10 µM;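 active = below 25% or above 175%, edge rows of some plates excepted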;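 also: Galphao activated by GDP with aluminum fluoride before binding; 100% = wells without compound and 0% = beads without RGS; some results beyond the cut were filed as inactive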
GALR2 ag – GALR2 (human) receptor agonism | O43603 | GALR2-expressing cells, agonist activation read-out | activation, %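 (tested at 5 µM)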 | 140,000 compounds, 0.48% hits;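 active = above mean plus 3 SD of all compounds, about 5% in these data, not always enough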;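 also: 0% = vehicle buffer wells and 100% = reference agonist at full effect; tested in CHO reporter cells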
Insulin prom inh – TRM-6 insulin promoter activity inhibition. 130,000 compounds, 0.9% hits. TRM-6 cells (human fetal islet line), insulin promoter-eGFP reporter, imaging; reporter expression induced with tamoxifen. inhibition, % at 2 µM;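 active = inhibition above the mean plus 3 SD, with well images judged a real hit on visual review, cut at about 60% in these data, passing the limit was not always enough; inconclusive = inhibition over the cutoff but images rejected on review; inactive = inhibition not above the cutoff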
Insulin prom inh cell count – second read-out of Insulin prom inh, no call of its own (marks repeat the call); normalized cell count, %; measured here: cell count, toxicity; reference of the scale not given here;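 cells exposed to compound for 48 h; stained nuclei by imaging scaled within each plate; lower means fewer cells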
HSV augment primary fold – further read-out of HSV augment, marked with its call; fold increase; compound at 10 µM; measured here: primary screen fold increase 10 uM; tested in PC3 cells;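 GFP signal in the first replicate; 1 = infected wells without compound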
* hit, by the source's call; i = inactive; u = inconclusive; x = no result given.

SMILES | HSV augment | HSV augment primary fold | PKD1 kinase inh | RGS16-Gao HTS | GALR2 ag | Insulin prom inh | Insulin prom inh cell count
O=C(Nn1c(Cc2cccs2)nc2ccccc2c1=O)c1cccs1 | i | 1 | -5 | 40 | 0.0 | -3 | 140
Cc1noc(NS(=O)(=O)c2ccc(NC(=O)CS(=O)(=O)c3ccccc3)cc2)c1C | i | 0.99 | -1 | 102 | 0.1 | -25 | 152
Cn1c(SCC(=O)N/N=C/c2cc([N+](=O)[O-])ccc2O)nnc1-c1ccccc1 | i | 0.96 | x | 104 | x | x | x
CCOCCCNC(=O)N[C@@H](C)C(=O)OC | i | 0.67 | 0 | 106 | -2.2 | x | x
CCCCN(CC)CCNC(=O)CN(C)S(=O)(=O)c1ccc2c(c1)c(=O)n(C)c(=O)n2C | i | 0.87 | 2 | 103 | -3.0 | 12 | 116
COc1cc(C(=O)Nc2nnc(-c3sccc3C)s2)cc(OC)c1OC | u | x | -6 | 106 | -1.9 | -7 | 68
O=C(Nc1cccnc1)C1CCC(CNS(=O)(=O)c2cccc3nsnc23)CC1 (stereo not given) | i | 1 | x | 91 | x | x | x
CCOC(=O)C1CCN(C(=O)c2c(-c3c(Cl)cccc3Cl)noc2C)CC1 | i | 1.1 | -4 | 98 | -1.9 | -15 | 131
COc1ccccc1Cn1c(=O)c2ccccc2n2c(SCC(=O)N3CCCCC3)nnc12 | i | 0.95 | -6 | 101 | -1.0 | x | x
COC(=O)c1ccc(NC(=O)c2ccccc2N(C)S(C)(=O)=O)cc1 | i | 1 | 2 | 98 | -2.1 | 52 | 126
CCOP(=O)(OCC)c1nc(-c2cccc3ccccc23)oc1N1CCCCC1 | i | 0.9 | 0 | 100 | x | -9 | 71
CCCCC(NC(=O)c1ccc(Cl)cc1)C(=O)O (stereo not given) | i | 0.96 | 15 | 102 | -2.3 | x | x
C=CCn1c(SCc2ccc(C#N)cc2)nnc1-c1cccc(OC)c1 | i | 1 | -4 | 99 | -2.5 | -164 | 151
CCCOc1ccc(CNC(=O)Cn2ncc3ccccc32)cc1 | i | 1.1 | x | 103 | x | x | x
O=c1cc(NCCc2ccccc2)c2ccccc2o1 | i | 1 | 1 | 108 | x | -133 | 114
O=C(COC(=O)c1ccccc1C(=O)N1CCN(c2ccc(F)cc2)CC1)NCc1ccccc1 | i | 0.9 | -2 | 96 | -2.2 | -13 | 132
O=C(NNC(=O)c1cc2cc3ccccc3nc2s1)c1ccc(F)cc1 | x | x | -11 | 106 | 1.9 | -36 | 45
CCOC(=O)N1CCC(Nc2nc3ccccc3nc2NS(=O)(=O)c2ccc(Cl)cc2)CC1 | i | 0.91 | 3 | 114 | -1.4 | -7 | 122
Cc1cc(C(F)(F)F)nn1CC(=O)N1CCCC1 | i | 0.93 | -1 | 116 | -1.3 | 4 | 168
CCC(Sc1nc(C)cc(C)n1)C(=O)Nc1ccc(S(N)(=O)=O)cc1 (stereo not given) | i | 0.94 | x | 99 | x | x | x

Profiles from above.
Cc1cc(C(F)(F)F)nn1CC(=O)N1CCCC1 is listed with HSV augment = i; HSV augment primary fold = 0.93; PKD1 kinase inh = -1; RGS16-Gao HTS = 116; GALR2 ag = -1.3; Insulin prom inh = 4; Insulin prom inh cell count = 168
O=c1cc(NCCc2ccccc2)c2ccccc2o1 is listed with HSV augment = i; HSV augment primary fold = 1; PKD1 kinase inh = 1; RGS16-Gao HTS = 108; GALR2 ag = x; Insulin prom inh = -133; Insulin prom inh cell count = 114

The list goes on:
SMILES | HSV augment | HSV augment primary fold | PKD1 kinase inh | RGS16-Gao HTS | GALR2 ag | Insulin prom inh | Insulin prom inh cell count
Cc1ccc(C2c3c(oc4ccccc4c3=O)C(=O)N2c2nnc(C(C)C)s2)o1 (stereo not given) | i | 0.96 | -2 | 107 | 1.9 | 10 | 77
CCn1c(CNC(=O)Cc2ccc(OC)cc2)nnc1SCC(=O)c1ccccc1 | i | 0.97 | -7 | 93 | x | x | x
CCN(Cc1ccccc1)C(=O)COC(=O)c1n[nH]c2ccccc12 | i | 0.96 | -2 | 99 | -4.5 | 22 | 145
Cc1ccc(CNC(=O)C2CC3Cn4c(nc5cc(C)c(C)cc54)C3N2C)o1 (stereo not given) | i | 0.86 | x | 100 | x | x | x
CCN(CC(=O)O)S(=O)(=O)c1cc(Cl)ccc1Cl | i | 1 | -8 | 109 | -3.4 | 5 | 103
COc1ccc(C2N(S(=O)(=O)c3ccccc3)CCN2S(=O)(=O)c2ccc(C)cc2)cc1 (stereo not given) | i | 0.88 | 0 | 98 | -0.4 | x | x
O=C(O)c1cc(Cl)ccc1-c1ccc(/C=C/c2cc(C(F)(F)F)[nH]c(=O)n2)o1 | u | x | 7 | 110 | x | x | x
COc1ccc(NC2CC(=O)NC2=O)cc1 (stereo not given) | i | 0.83 | 8 | 95 | -1.2 | -18 | 69
O=C(COc1ncnc2c(Cl)cc(Cl)cc12)NC1CCCCCC1 | i | 1.1 | 5 | 102 | -0.6 | 19 | 115
COc1ccc(CCCC(=O)N/N=C/c2ccccc2OC)cc1 | i | 0.88 | -3 | 106 | x | x | x
CN(C)S(=O)(=O)c1cc(NC(=O)CN2CCN(c3ccccc3F)CC2)ccc1Cl | i | 0.89 | 0 | 103 | x | x | x
CC(NCCC1(Cc2ccccc2Cl)CCOC(C)(C)C1)c1cccs1 (stereo not given) | i | 0.89 | x | 92 | x | x | x
COc1cccc(=O)c2c(C)n(C)c(C)c12 | i | 0.96 | -1 | 94 | -2.9 | 40 | 69
COc1ccc(NC(=S)Nc2ccc(N)c([N+](=O)[O-])c2)cc1 | i | 0.91 | -6 | 99 | -2.1 | -31 | 114
COc1ccc(CCNC(=O)C2CCC(CNS(=O)(=O)c3ccccc3)CC2)cc1OC (stereo not given) | i | 1 | 5 | 115 | x | 33 | 63
CCOc1ccc(NC(=O)[C@@H](NC(=O)c2ccccc2Br)C(C)C)cc1 | i | 1 | -8 | 97 | -1.0 | -48 | 111
CCN(CC)S(=O)(=O)c1ccc(NC(=O)COC(=O)c2c[nH]c(=O)[nH]c2=O)cc1 | i | 0.94 | x | 106 | x | x | x
COc1ccccc1C1CCN(C(=O)c2ccco2)CC1 | i | 1 | x | 103 | x | x | x
CC(=C/c1ccccc1)/C=N/NC(=O)c1cnccn1 | i | 0.89 | -1 | 105 | -2.8 | -19 | 132
COC(=O)CSc1ccnc2cc(Cl)ccc12 | i | 0.99 | x | 99 | x | x | x
O=C(CSc1nnc(-c2ccco2)n1-c1ccccc1)NCc1ccco1 | i | 0.91 | -3 | 97 | -1.5 | 81* | 41*
CN(C)/C=N/c1nc(Sc2ccc(C(F)(F)F)cc2[N+](=O)[O-])n[nH]1 | i | 1.2 | x | 104 | x | x | x
NC(=O)C1CCN(C(c2ccccc2Cl)c2nnnn2Cc2ccc3c(c2)OCO3)CC1 (stereo not given) | i | 1 | 0 | 98 | -3.5 | x | x
CC(=O)Nc1ccc(-c2csc(NC(C)c3ccccc3)n2)cc1 (stereo not given) | i | 1.1 | -7 | 98 | x | x | x
Cc1cccnc1NC(=O)Cn1nc([N+](=O)[O-])cc1C | i | 0.98 | -7 | 101 | x | x | x
COc1ccc2c(c1)C(C1C(=O)CCCC1=O)c1ccccc1O2 (stereo not given) | i | 0.95 | 5 | 95 | -1.5 | -70 | 71
O=C(Nc1ccccc1N1CCCC1)c1ccc(Cl)cc1Cl | i | 0.95 | -7 | 99 | x | x | x
CCOC(=O)c1c(C)c(C(=O)NCc2cccs2)c(C)n1C | i | 0.94 | -4 | 107 | -1.8 | x | x
Nc1nc(SCC(=O)Nc2ccccc2-c2ccccc2)n[nH]1 | i | 0.85 | 0 | 76 | -1.9 | -43 | 117
Cc1ccc(CC2CC(=O)N(c3ncccn3)C2=O)cc1 (stereo not given) | i | 0.95 | x | 106 | x | x | x

Of the compounds above, these have a nitro group on carbon:
SMILES | HSV augment | HSV augment primary fold | PKD1 kinase inh | RGS16-Gao HTS | GALR2 ag | Insulin prom inh | Insulin prom inh cell count
Cn1c(SCC(=O)N/N=C/c2cc([N+](=O)[O-])ccc2O)nnc1-c1ccccc1 | i | 0.96 | x | 104 | x | x | x
COc1ccc(NC(=S)Nc2ccc(N)c([N+](=O)[O-])c2)cc1 | i | 0.91 | -6 | 99 | -2.1 | -31 | 114
CN(C)/C=N/c1nc(Sc2ccc(C(F)(F)F)cc2[N+](=O)[O-])n[nH]1 | i | 1.2 | x | 104 | x | x | x
Cc1cccnc1NC(=O)Cn1nc([N+](=O)[O-])cc1C | i | 0.98 | -7 | 101 | x | x | x

(more compounds)
SMILES | HSV augment | HSV augment primary fold | PKD1 kinase inh | RGS16-Gao HTS | GALR2 ag | Insulin prom inh | Insulin prom inh cell count
O=C(Nc1nc2c(s1)CCCC2)c1ccc(Br)s1 | i | 0.9 | 0 | 124 | -0.2 | 8 | 126
CN(C)c1ccc(C2CC(=O)C=C(Nc3ccccc3N)C2)cc1 (stereo not given) | i | 0.97 | x | 101 | x | x | x
COc1ccc(-n2cnnc2SCc2csc(-c3ccccc3)n2)cc1 | i | 0.66 | -9 | 105 | 0.1 | 23 | 122
CCn1c(O)c(N=NC2=NC(=O)CS2)c2ccccc21 | i | 0.94 | -7 | 102 | -2.0 | -28 | 138
COc1ccc(-c2cc(C(=O)N3CCCc4ccccc43)no2)cc1OC | i | 0.83 | 3 | 102 | -0.3 | x | x
O=C(NNC(=S)Nc1ccc(F)cc1)[C@H]1C[C@@H]1c1ccccc1 | i | 0.92 | x | 105 | x | x | x
COc1ccccc1N1CCN(/N=C\c2sccc2C)CC1 | i | 1.1 | -6 | 99 | x | 12 | 99
Cc1cc(-c2cc(-c3ccc(Cl)cc3)nc(N)c2C#N)co1 | x | x | -5 | 57 | 9.9* | x | x
COc1ccc(CCNC(=O)c2ccc(C)s2)cc1OC | i | 1 | -1 | 98 | x | x | x
O=C(N/N=C/c1c[nH]c2c1ccc1ccccc12)c1ccc([N+](=O)[O-])cc1 | i | 0.99 | -10 | 34 | 0.1 | x | x
CCOC(=O)Nc1ccccc1C(=O)Nc1cc(C)cc(C)c1 | i | 0.8 | -1 | 97 | x | x | x
Cc1ccc(Cn2cccc(NC(=O)c3ccco3)c2=O)cc1 | i | 0.95 | -5 | 97 | -2.0 | x | x
COc1ccc(-n2c(C)nn(C)c2=O)cc1 | i | 0.94 | -12 | 96 | -0.9 | -27 | 104
CN(Cc1cccnc1)Cc1cn(C)nc1-c1cccc(Cl)c1 | i | 1.1 | -2 | 110 | x | x | x
COCCCn1c(SCCc2ccccc2)nc2cc(OC)c(OC)cc2c1=N | i | 0.76 | 2 | 100 | x | 0 | 106
CC(C)Cn1c(C(C)C)nc([N+](=O)[O-])c1S(=O)(=O)c1ccc(F)cc1 | i | 0.81 | 4 | 97 | -0.9 | x | x
CCN(CC)CCNC(=O)c1c(O)c2cccc3c2n(c1=O)CCC3 | i | 0.8 | -7 | 103 | -1.4 | 3 | 114
Clc1ccc(OCc2cnc(Cl)s2)cc1 | x | x | -19 | 104 | -1.2 | x | x
COc1ccc(/C=N/NC(=S)Nc2c(C)n(C)n(-c3ccccc3)c2=O)cc1OC | i | 1 | x | 91 | x | x | x
CSc1nc(C)cc(SCC(=O)Nc2ccc(Cl)cc2Cl)n1 | i | 0.96 | 8 | 101 | -0.8 | -150 | 110
CCCCN(C)CCCNC(=O)CN1C(=O)CSc2ccc(S(=O)(=O)N3CCOCC3)cc21 | i | 0.97 | -9 | 115 | -1.8 | 57 | 130
O=C(Nc1cccc(C(F)(F)F)c1)C(Sc1ncnc2ccccc12)c1ccccc1 (stereo not given) | i | 1.1 | -3 | 91 | 0.0 | x | x
CCSc1nnc(NC(=O)CC)s1 | i | 0.85 | 5 | 99 | -3.7 | x | x
O=C1CN(C(=O)CSc2nc3ccccc3n2CCc2ccccc2)c2ccccc2N1 | i | 0.95 | -5 | 110 | -0.9 | 22 | 59
Cc1nn(C)cc1CNC(=O)c1ccccc1Br | i | 1.1 | -9 | 94 | -3.6 | 19 | 108
Cc1ccc(S(=O)(=O)CC(=O)N(C)C)cc1 | i | 0.89 | -2 | 95 | -2.1 | 33 | 94
O=C(Nc1ccccc1-c1nnn(CC(=O)N2CCOCC2)n1)c1ccc(F)cc1 | i | 0.92 | -5 | 86 | x | x | x
COC(=O)CCN1CCN(S(=O)(=O)c2cccc(Br)c2)CC1 | i | 0.66 | 4 | 97 | x | x | x
COC(=O)c1cc2occc2n1Cc1nc(-c2ccc(Cl)cc2)oc1C | x | x | -10 | 103 | 0.4 | 37 | 94
CC1(C)CN(c2ccc(F)cc2)C1=O | i | 0.93 | -9 | 104 | x | -12 | 177
COc1ccc(CN2CCOC2=O)cc1OC | i | 1.1 | x | 95 | x | x | x
O=C(Nc1nnc(C2CC2)s1)c1cc(-c2ccccc2)nn1-c1ccccc1 | i | 0.85 | 3 | 80 | 0.6 | -6 | 84
COc1ccc(NS(=O)(=O)c2ccc3oc4ccccc4c3c2)cn1 | i | 0.74 | -3 | 101 | -1.2 | 8 | 80
